TSHR ag: qHTS Assay for Agonists of the Thyroid Stimulating Hormone Receptor. Potency, µM (top dose mostly 57.1 µM), without a hit: top-dose activation, usual class: activators. AID 926, 2007. HEK293-CNG-TSHR cells (CNG channel as cAMP sensor), membrane potential dye, cAMP. 73,000 compounds, 0.48% hits. Thyrotropin receptor (Homo sapiens), P16473; active = well fitted activation curve of enough size with the parental cells flat; inconclusive = any curve in the parental cells; inactive = parental cells flat and receptor cells flat or falling; note: potency is the fitted concentration of half-maximal effect; % of control where 0% means no effect; weak receptor curves with flat parental cells got no call and are not listed
Target sequence (P16473 whole entry, looked up): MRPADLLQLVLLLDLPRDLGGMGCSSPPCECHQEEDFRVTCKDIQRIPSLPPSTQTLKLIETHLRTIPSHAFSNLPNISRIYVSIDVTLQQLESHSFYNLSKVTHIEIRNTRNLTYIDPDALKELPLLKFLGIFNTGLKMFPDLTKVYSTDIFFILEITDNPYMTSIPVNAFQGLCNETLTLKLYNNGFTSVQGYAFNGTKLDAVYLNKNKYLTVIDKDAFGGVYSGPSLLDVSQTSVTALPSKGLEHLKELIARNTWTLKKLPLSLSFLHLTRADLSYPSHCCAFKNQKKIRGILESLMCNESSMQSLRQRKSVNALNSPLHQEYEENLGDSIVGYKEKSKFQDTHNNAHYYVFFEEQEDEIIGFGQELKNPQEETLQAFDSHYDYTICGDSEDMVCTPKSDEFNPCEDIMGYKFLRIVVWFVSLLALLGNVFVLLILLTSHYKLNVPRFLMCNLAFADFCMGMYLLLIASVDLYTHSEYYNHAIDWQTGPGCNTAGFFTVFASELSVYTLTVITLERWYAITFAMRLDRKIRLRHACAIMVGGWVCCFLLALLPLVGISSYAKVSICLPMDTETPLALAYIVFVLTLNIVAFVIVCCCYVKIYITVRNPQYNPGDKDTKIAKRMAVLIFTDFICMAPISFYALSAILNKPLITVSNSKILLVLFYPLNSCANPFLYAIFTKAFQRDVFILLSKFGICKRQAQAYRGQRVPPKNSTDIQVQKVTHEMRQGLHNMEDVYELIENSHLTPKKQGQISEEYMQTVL
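cAMP rise detected as CNG-channel membrane depolarization by fluorescent dye (emission 590 nm), 30 min after compound, following 60 min dye loading containing 100 uM RO 20-1724 at room temperature. Cells: TSHR/CNG HEK 293, with parental CNG HEK 293 as control.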
AID923: qHTS Assay for Allosteric/Competitive Inhibitors of Caspase-1: Spectroscopic Profiling in AFC Spectral Region; compound fluorescence, AFC spectral region (405/520 nm); almost no hit is shown here; Potency, µM (highest dose often 57.5 µM), without a hit: at the top dose fluorescence increase, actives largely listed as activators; 75,000 compounds, 1.1% hits; active = well fitted activation curve with a large enough effect; inconclusive = small, poorly fitted or top-dose-only effect;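 note: potency is the fitted concentration of half-maximal effect; 0% is about no effect; scaled to a free AFC standard on each plate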
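Compound autofluorescence profiled at 405 nm ex/520 nm em during kinetic caspase 1 run (50 nM enzyme, 5 uM Ac-WEHD-AFC, HEPES pH 7.5, 10 mM DTT). Titration up to 57 uM; baseline from regression intercept, normalized to AFC standard curve.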
A647 fluor: qHTS Assay for Spectroscopic Profiling in A647 Spectral Region; Compound fluorescence, A647 channel (570/671 nm), Tris buffer; max dye-equivalent concentration, M; AID 592, 2007; 59,000 tested, under 10 active; active means above 1 µM dye equivalent; inconclusive means 0.1 to 1 µM; inactive means 0.1 µM or less;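 note: values scaled relative to a standard on each plate; highest value over a series up to 38 µM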
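Fluorescence read (570 nm ex, 671 nm em) after 15 min RT incubation of compounds in 100 mM Tris buffer, pH 8.0; values expressed as dye-equivalent concentration against a six-point A647 standard series on each plate.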
Resorufin fluor: qHTS Assay for Spectroscopic Profiling in Resorufin Spectral Region | Compound fluorescence, resorufin region 547/598 nm, buffer; stronger effect = higher value | max dye-equivalent concentration, M | 59,000 compounds, 0.04% hits | AID 588, 2007; active = above 10 nM dye equivalent; inconclusive = 1 to 10 nM; inactive = 1 nM or less; a few of its hits are not listed in these tables; note: highest value over a series up to 38 µM
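Dye-equivalent concentration values derive from comparing each well's 547/598 nm fluorescence against resorufin standards included on every plate. Incubation was 15 min at room temperature in 100 mM Tris, pH 8.0.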
A488 autofl: qHTS Assay for Spectroscopic Profiling in A488 Spectral Region. compound autofluorescence, A488 spectral region, dye equivalency; stronger effect = higher value. max dye equivalency, M. 59,000 compounds, 0.1% hits. AID 591, 2007; active = above 10 nM dye equivalent; inconclusive = 1 to 10 nM; inactive = 1 nM or less; about half of its hits are not listed in these tables;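 note: highest value over a series up to 38 µM; compound alone in buffer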
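Intrinsic compound fluorescence is measured in 100 mM Tris buffer at pH 8.0 following 15 min incubation at room temperature. Intensities at 480 nm excitation/540 nm emission are calibrated to an on-plate A488 concentration series, giving dye-equivalent concentrations.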
Numbers without * were called inactive; [ ] = remark or other dose. These rows are one share of the data (hit frequency here may not be typical).

CCC(=O)NC(c1ccccc1)c1nc2ccccc2[nH]1 (stereo not drawn) was read as TSHR ag -5%[11.4 µM], AID923 -0.8%, A647 fluor 8.6e-09, Resorufin fluor inactive and A488 autofl inactive.
For COc1cc(C(=O)O)nc2ccccc12 the results were TSHR ag -5%, AID923 1.6%, A647 fluor 3.8e-08, Resorufin fluor inactive and A488 autofl inactive.
`CCS(=O)(=O)N1CCCC(C(=O)NCc2ccc3c(c2)OCO3)C1` (stereo not drawn) gave TSHR ag 2%, AID923 1.2%, A647 fluor 1.8e-08, Resorufin fluor inactive and A488 autofl inactive.
For Cc1ccc(OCC(=O)Nc2ccc(-c3nc4ncccc4o3)cc2)cc1 the results were TSHR ag 9%, AID923 -1.2%, A647 fluor 2.3e-08, Resorufin fluor inactive and A488 autofl inactive.
For Cc1oc(-c2ccc(Cl)cc2)nc1CSCC(=O)NCCCN1CCOCC1 the results were TSHR ag -4%[11.4 µM], AID923 -0.2%, A647 fluor 3.4e-09, Resorufin fluor inactive and A488 autofl inactive.
`Cc1ccc(-n2nc(-c3ccc(N)cc3)cc2N)cc1` gave TSHR ag -22% and AID923 0.0%.
`CCOC(=O)/C=C1\SCC(=O)N1CC(=O)Nc1ccccc1OC(F)F` gave TSHR ag 0%, AID923 -0.8%, A647 fluor 7.1e-09, Resorufin fluor inactive and A488 autofl inactive.
Screening CC(=O)c1cccc(NC(=O)NCc2ccccn2)c1 returned AID923 1.4%, A647 fluor 5.7e-09, Resorufin fluor inactive and A488 autofl inactive.
For Cn1c(C(=O)N2CCCC2)cc2c(=O)n(C)c3ccccc3c21 the results were TSHR ag inconclusive and AID923 -0.5%.
`O=C(NCCc1ccccc1)c1cccnc1N1CCCCCC1` gave TSHR ag inconclusive, AID923 -0.7%, A647 fluor 1.5e-08, Resorufin fluor inactive and A488 autofl inactive.
Screening Cc1ccc(Br)cc1S(=O)(=O)N1CCN(c2ccccc2)CC1 returned TSHR ag 16% and AID923 0.8%.
CCCCNC(=O)CSc1nc2ccc(N3CCOCC3)cc2c(=O)n1CCc1ccccc1 was read as TSHR ag -21%, AID923 18%, A647 fluor 1.8e-08, Resorufin fluor inactive and A488 autofl inactive.
Cc1ccc(NCc2nnc(SCC(=O)Nc3cccc(O)c3)n2CC2CCCO2)c(C)c1 (stereo not drawn) was read as TSHR ag 9%, AID923 -0.9%, A647 fluor 1e-09, Resorufin fluor inactive and A488 autofl inactive.
Screening CN(CCCCCNC(=O)/C=N/O)Cc1ccccc1 returned A647 fluor 4.9e-09, Resorufin fluor inactive and A488 autofl inactive.
Screening COc1ccc(S(=O)(=O)N2CCN(S(=O)(=O)c3ccc(C(F)(F)F)cc3)CC2)cc1C returned TSHR ag -1%, AID923 -1.6%, A647 fluor 2.6e-08, Resorufin fluor inactive and A488 autofl inactive.

Random excerpt: 5 entries already listed.
CCCCNC(=O)CSc1nc2ccc(N3CCOCC3)cc2c(=O)n1CCc1ccccc1 was read as TSHR ag -21%, AID923 18%, A647 fluor 1.8e-08, Resorufin fluor inactive and A488 autofl inactive.
`O=C(NCCc1ccccc1)c1cccnc1N1CCCCCC1` gave TSHR ag inconclusive, AID923 -0.7%, A647 fluor 1.5e-08, Resorufin fluor inactive and A488 autofl inactive.
`CCOC(=O)/C=C1\SCC(=O)N1CC(=O)Nc1ccccc1OC(F)F` gave TSHR ag 0%, AID923 -0.8%, A647 fluor 7.1e-09, Resorufin fluor inactive and A488 autofl inactive.
Cc1ccc(NCc2nnc(SCC(=O)Nc3cccc(O)c3)n2CC2CCCO2)c(C)c1 (stereo not drawn) was read as TSHR ag 9%, AID923 -0.9%, A647 fluor 1e-09, Resorufin fluor inactive and A488 autofl inactive.
`CCS(=O)(=O)N1CCCC(C(=O)NCc2ccc3c(c2)OCO3)C1` (stereo not drawn) gave TSHR ag 2%, AID923 1.2%, A647 fluor 1.8e-08, Resorufin fluor inactive and A488 autofl inactive.

Remaining list, next part
Screening Cc1nc(CSc2nc3[nH]ncc3c(=O)n2-c2ccccc2)cs1 returned TSHR ag 21%, AID923 0.2%, A647 fluor 4.1e-09, Resorufin fluor inactive and A488 autofl inactive.
`Cc1cccc(-n2nnnc2SCn2nnc3ccccc3c2=O)c1` gave TSHR ag inconclusive, AID923 -2.6%, A647 fluor 4e-08, Resorufin fluor inactive and A488 autofl inactive.
Screening O=C(O)CCCCCNS(=O)(=O)c1c(Cl)cccc1Cl returned TSHR ag 3%, AID923 -0.2%, A647 fluor 1e-09, Resorufin fluor inactive and A488 autofl inactive.
`NC[C@H](O)C1CCCCCCC1` gave TSHR ag 4%, AID923 1.2%, A647 fluor 1.4e-09, Resorufin fluor inactive and A488 autofl inactive.
COc1ccc2c(=O)c3c(=O)n(Cc4ccco4)c(C(C)C)nc3oc2c1 was read as TSHR ag 8%, AID923 -0.4%, A647 fluor 1e-09, Resorufin fluor inactive and A488 autofl inactive.
`O=C(NCCc1ccc(Cl)cc1)C1CC(=O)N(C2CCCCC2)C1` (stereo not drawn) gave TSHR ag 23% and AID923 3.2%.
Screening CC(=O)n1c2ccccc2c2nc(NC(C)C)sc21 returned TSHR ag -29%, AID923 0.7%, A647 fluor 1e-08, Resorufin fluor inactive and A488 autofl inactive.
CCCc1ccc(C(=O)CCC(=O)O)cc1 was read as TSHR ag -4%, AID923 -2.4%, A647 fluor 3.9e-08, Resorufin fluor inactive and A488 autofl inactive.
For COc1ccc(N2CCN(c3nc4c(c(=O)[nH]c(=O)n4C)n3Cc3ccccc3Cl)CC2)cc1 the results were TSHR ag -3% and AID923 -0.9%.
Screening CCN(CC)c1ccc2c(C)c(-c3ccc(N)cc3)c(=O)oc2c1 returned A647 fluor 1.9e-08, Resorufin fluor inactive and A488 autofl inactive.
For O=C(c1ccco1)N1CCN(c2ncnc3sc4c(c23)CCC4)CC1 the results were TSHR ag 8%, AID923 0.5%, A647 fluor 5.4e-08, Resorufin fluor inactive and A488 autofl inactive.
For COc1ccc(NC(=O)CN2c3cccc4cccc(c34)S2(=O)=O)cc1 the results were TSHR ag 0%, AID923 1.3%, A647 fluor 1e-09, Resorufin fluor inactive and A488 autofl inactive.
`O=S(=O)(NCc1csc(-c2ccccc2)n1)c1ccc(Cl)s1` gave TSHR ag 8% and AID923 -2.2%.
CCOC(=O)N1CCN(C(=O)CN(c2ccc(C)cc2)S(=O)(=O)c2c(C)noc2C)CC1 was read as TSHR ag 11%, AID923 -4.3%, A647 fluor 1.4e-08, Resorufin fluor inactive and A488 autofl inactive.
Screening CC(=O)NS(=O)(=O)c1ccc(NS(=O)(=O)c2ccc(F)cc2)cc1 returned TSHR ag 3%, AID923 1.8%, A647 fluor 1e-09, Resorufin fluor inactive and A488 autofl inactive.
`Cc1nc2c(C(=O)NCCc3ccccc3)c[nH]n2c(=O)c1Cl` gave TSHR ag 23%, AID923 -0.3%, A647 fluor 2.7e-09, Resorufin fluor inactive and A488 autofl inactive.
O=C(Nc1ccc(F)cc1)N1CCC(c2nc3c(nnn3Cc3cccc(Cl)c3)c(=O)[nH]2)CC1 was read as TSHR ag 14%, AID923 1.9%, A647 fluor 1e-09, Resorufin fluor inactive and A488 autofl inactive.
Screening COc1ccc(N2CCN(c3oc(-c4ccccc4OC)nc3C#N)CC2)cc1 returned TSHR ag 16%, AID923 1.0%, A647 fluor 5.4e-09, Resorufin fluor inactive and A488 autofl inactive.
O=C(NCc1ccco1)C1CCC(N2C(=O)c3ccccc3C2=O)CC1 (stereo not drawn) was read as TSHR ag 0%[11.4 µM] and AID923 2.0%.
For O=C(c1c(F)c(F)c(F)c(F)c1F)N1CCN(c2cccc(C(F)(F)F)c2)CC1 the results were TSHR ag inconclusive, AID923 -2.0%, A647 fluor 3.2e-08, Resorufin fluor inactive and A488 autofl inactive.
`O=C(O)Cn1cc2c(n1)CCCC2` gave TSHR ag 12%[11.4 µM], AID923 0.2%, A647 fluor 2.8e-08, Resorufin fluor inactive and A488 autofl inactive.
CC1(C)CC(CCNC(=O)c2ccc(-n3cnnn3)cc2)CC(C)(C)N1 was read as TSHR ag 20%, AID923 0.5%, A647 fluor 5e-09, Resorufin fluor inactive and A488 autofl inactive.
COC(=O)Cn1c(CN2CCC(Cc3ccccc3)CC2)nc2c1c(=O)n(C)c(=O)n2C was read as TSHR ag inconclusive, AID923 -0.2%, A647 fluor 1e-09, Resorufin fluor inactive and A488 autofl inactive.
Screening CCOC(=O)CSc1nnc(CNC(=O)c2cccs2)n1-c1cccc(C)c1 returned TSHR ag 11%, AID923 -0.9%, A647 fluor 2.5e-08, Resorufin fluor inactive and A488 autofl inactive.
Screening Cn1cccc1Cc1nnc(SCC(=O)Nc2ccc3c(c2)OCCO3)n1CCc1ccccc1 returned TSHR ag 7% and AID923 -0.2%.
For O=C1c2ccccc2C(=O)N1CSc1nnnn1-c1ccccc1 the results were TSHR ag 4% and AID923 1.3%.
Screening CC12CCCCC1c1ccccc1C(=NCC(=O)O)N2 (stereo not drawn) returned TSHR ag 18%[11.4 µM], AID923 1.1%, A647 fluor 1e-09, Resorufin fluor inactive and A488 autofl inactive.
Screening NC(=O)CCCCC(=O)OCCCc1cccs1 returned TSHR ag inconclusive, AID923 -0.5%, A647 fluor 5.7e-09, Resorufin fluor inactive and A488 autofl inactive.
Screening COc1ccc(NC(=O)C2CCCN(S(=O)(=O)c3cccc4cccnc34)C2)cc1 (stereo not drawn) returned TSHR ag 22% and AID923 1.4%.
`CC(=O)NCCn1c(SCc2ccccc2F)nc2ccccc2c1=O` gave AID923 -2.6%, A647 fluor 1e-09, Resorufin fluor inactive and A488 autofl inactive.
COC(=O)C(C)Oc1ccc(=O)[nH]n1 (stereo not drawn) was read as TSHR ag 2%, AID923 -0.4%, A647 fluor 6.3e-08, Resorufin fluor inactive and A488 autofl inactive.
For CC(=O)NC(Cc1cnc[nH]1)C(=O)O (stereo not drawn) the results were TSHR ag -3%[11.4 µM] and AID923 -0.6%.
For O=C(O)CN(CCOCCOCCN(CC(=O)O)CC(=O)O)CC(=O)O the results were TSHR ag 8%, AID923 0.4%, A647 fluor 4.8e-09, Resorufin fluor inactive and A488 autofl inactive.
Screening COc1ccccc1N1CCN(C(=O)CCNS(=O)(=O)c2ccc(Br)s2)CC1 returned TSHR ag 3%, AID923 0.1%, A647 fluor 1e-09, Resorufin fluor inactive and A488 autofl inactive.
O=C(CCN1C(=O)C2C3C=CC(C3)C2C1=O)N1CCN(c2ccc(F)cc2)CC1 (stereo not drawn) was read as TSHR ag -7%, AID923 -0.5%, A647 fluor 1.5e-08, Resorufin fluor inactive and A488 autofl inactive.
C/C(=C\c1ccco1)C1C(C#N)=C(N)OC2=C1C(=O)CC(C)(C)C2 (stereo not drawn) was read as TSHR ag inconclusive, AID923 1.9%, A647 fluor 1.2e-08, Resorufin fluor inactive and A488 autofl inactive.
CCCOc1ccc(C2(C(=O)O)CCCC2)cc1 was read as TSHR ag inconclusive, AID923 -1.6%, A647 fluor 3.1e-08, Resorufin fluor inactive and A488 autofl inactive.
For COc1[nH]c(/N=C/c2ccccc2)c(C#N)c1C#N the results were TSHR ag 3%, AID923 16%, A647 fluor 8e-09, Resorufin fluor inconclusive and A488 autofl inconclusive.
Screening CS(=O)(=O)Nc1ccc(S(=O)(=O)N2CCOCC2)cc1 returned TSHR ag 4% and AID923 0.8%.
Screening CCOc1cccc(NC(=O)C(Cc2cccs2)c2nn[nH]n2)c1 (stereo not drawn) returned TSHR ag 1%, AID923 -0.1%, A647 fluor 2.6e-09, Resorufin fluor inactive and A488 autofl inactive.
COc1ccc(CNC(=O)C2CCCN(S(=O)(=O)c3c(C)nn(C)c3C)C2)cc1 (stereo not drawn) was read as TSHR ag 1% and AID923 1.6%.

Source: PubChem BioAssay
